Assay outcomes (PubChem BioAssay)
HSD17B inhib – blocks hydroxysteroid 17-beta dehydrogenase activity; Q99714; recombinant HSD17B10, NADH fluorescence kinetic; many of its hits are not listed in these tables; AID 893; 75,000 compounds, 7.6% hits; Potency, µM (top dose mostly 57.1 µM), inactives show at the top dose activity change, negative = inhibition, usual class: inhibitors; active = well fitted inhibition curve with a large enough effect; inconclusive = small, poorly fitted or top-dose-only effect; inactive = no such curve, though single readings can be large or run the other way;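 also: the protocol describes HADH2 (HSD17B10) and not the HSD17B4 of the title; nearly all actives have a fitted effect of over 70% in size; most hits overshoot -100% by far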
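Enzyme plus compound, 15 min room temperature; substrate mix added (NAD+ 1 mM, beta-hydroxybutyryl-CoA 90 uM final); plates read kinetically for NADH fluorescence. HADH2 was His-tagged, E. coli-derived, 20 nM.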
Active calls of the source: *; ? = inconclusive; & = joins results of further samples; [ ] = remark or other dose. % is scaled to controls: 0 for no effect and ±100 for the full control effect; potency is read from the fitted curve at half-maximal effect. Only part of the results is shown; rates above refer to the full screens.

SMILES	HSD17B inhib
COc1ccccc1NC(=O)CSc1nc2nc(C)cc(C)c2c(=O)[nH]1	-15%
Cc1cc(OCC(O)CN2CCN(CCO)CC2)ccc1C(C)C (stereo unspecified)	7%
Cc1ccc2[nH]c(=O)c(COC(=O)C3CCCO3)cc2c1 (stereo unspecified)	-22%
COc1cc(C)nc(Oc2ccc(OCc3ccccc3)nn2)n1	7%
COC(=O)C1=C(C)N2C(=O)CSC2=NC1c1ccc2c(c1)OCO2 (stereo unspecified)	5%
CCN(CC)C(=O)CSc1nnc(-c2cc(OC)cc(OC)c2)o1	9%
CC(=O)CC1(O)C(=O)N(CN2CCN(c3ccccc3)CC2)c2ccccc21 (stereo unspecified)	?
COc1ccc(Cc2nnc(NC(=O)c3ccco3)s2)cc1OC	2%
CCC1CCCCN1C(=O)c1cc(-c2ccc(Cl)c(Cl)c2)on1 (stereo unspecified)	-1%
Cc1nnc(SCC(=O)Nc2cccc(C(F)(F)F)c2)[nH]c1=O	8%

Random excerpt: 6 entries already listed, in no set order.
SMILES	HSD17B inhib
Cc1cc(OCC(O)CN2CCN(CCO)CC2)ccc1C(C)C (stereo unspecified)	7%
Cc1ccc2[nH]c(=O)c(COC(=O)C3CCCO3)cc2c1 (stereo unspecified)	-22%
COc1ccccc1NC(=O)CSc1nc2nc(C)cc(C)c2c(=O)[nH]1	-15%
Cc1nnc(SCC(=O)Nc2cccc(C(F)(F)F)c2)[nH]c1=O	8%
COc1cc(C)nc(Oc2ccc(OCc3ccccc3)nn2)n1	7%
CCN(CC)C(=O)CSc1nnc(-c2cc(OC)cc(OC)c2)o1	9%

Later entries:
SMILES	HSD17B inhib
CCOc1ccccc1N1CCN(C(=O)c2cc3c(s2)CCC3)CC1	-3%
O=C(OCCN1C(=O)c2ccccc2C1=O)c1cc(=O)[nH]c2ccccc12	80%[activator]
COc1cc(NS(=O)(=O)c2ccc(Br)s2)cc(OC)c1	-6%
CCCc1[nH]nc2c1C1(CCN(C(=O)OCc3ccccc3)CC1)C(C#N)=C(N)O2	-5%
Cc1cccc(CNc2ncnc3ccc(-c4ccccc4C#N)cc23)c1	25µM*
CCCCCc1c(C)nc(N2CCOCC2)[nH]c1=O	14%
Cc1cccc2cc(COC(=O)c3ccccc3)c(=O)[nH]c12	5%
CC(Sc1nc2ccccc2c(=O)n1Cc1ccco1)C(=O)c1ccccc1 (stereo unspecified)	8%
CC(=O)N(O)CCCCCNC(=O)CCC(=O)N(O)CCCCCNC(=O)CCC(=O)N(O)CCCCCN	2%
N[C@@](CCc1ccccc1)(C(=O)O)c1ccccc1	-5%[11.4 µM]
O=C(CCCSc1nc2ccccc2[nH]1)NC1=NCCS1	-4%
CCn1c(CNc2ccc(C)cc2C)nnc1SCC(=O)N1CCCc2ccccc21	8%
CN(C)C(=O)c1ccc(-c2nc(N(C)Cc3ccco3)c3ccccc3n2)cc1	-12%
CCCCCSc1nc2c(c(=O)[nH]c(=O)n2C)n1CC	-5%
CN1CCN(CP(=O)(N2CCOCC2)N2CCOCC2)CC1	1%
O=C(NCc1ccc2c(c1)OCO2)C1CCN(c2ncccn2)CC1	-25%
O=C(NCC(=O)N(CC1CCCO1)C(C(=O)NC1CCCC1)c1ccc(F)cc1)c1ccco1 (stereo unspecified)	2%
N#Cc1c(Nc2ccccc2)c(C=NCCN2CCOCC2)c[nH]c1=O	1%
COC(=O)C1=C(C)NC(C)=C(C(=O)OC)C1c1cn(-c2ccccc2)nc1-c1ccco1	?
c1ccc(-c2cc(-c3nnc4sc(-c5ccccn5)nn34)[nH]n2)cc1	32µM*
Cc1nc2ccccn2c1-c1nnco1	32µM*
COc1ccccc1N1CCN(C(=O)CSc2nc(C)c(Cc3ccccc3)c(=O)[nH]2)CC1	-6%
O=C(NCc1ccccc1)c1cc(-c2cccs2)on1	0%
CC1(C)C(=O)C2(C(=O)NCc3ccccc3)CCC1C2 (stereo unspecified)	-12%
N=c1nc(N)nc2n1NC(c1ccc(F)cc1)=CS2	-6%
CCOC(=O)c1cc2n(n1)C(C(F)(F)C(F)(F)F)CC(C)N2 (stereo unspecified)	5%
Nc1ccccc1C(=O)CC(N)C(=O)O (stereo unspecified)	-12%&-26%
CN(C)C(=O)c1ccc(-c2nc(NCc3cccs3)c3ccccc3n2)cc1	?
COCCSc1nc2sc3c(c2c(=O)n1-c1ccccc1)CCN(C)C3	-10%
C=C(C)Cn1c(-c2ccccc2)nc2ccccc21	32µM*
COc1ccc(S(=O)(=O)NCCSc2ccc(C)cc2)cc1OC	-2%
O=C(COC(=O)C1CCC1)Nc1ccc(OC(F)F)cc1	5%
CCN(c1ccccc1)S(=O)(=O)c1ccc(F)c(C(=O)O)c1	4%
CCC(C)C(NC(=O)c1ccccc1NC(=O)c1ccc(OC)cc1)C(=O)NCc1ccco1 (stereo unspecified)	?
COc1ccc(C2CC(=O)c3c(C)nc(N4CCN(Cc5ccccc5)CC4)nc3C2)cc1OC (stereo unspecified)	-18%
COCCOC(=O)C1=C(C)OC(N)=C(C#N)C1c1ccc2c(c1)OCO2 (stereo unspecified)	9%
COc1cc(S(=O)(=O)N2CCC(C(N)=O)CC2)c(C)cc1C	2%
O=C(O)c1ccc(NS(=O)(=O)c2ccsc2C(=O)O)c(O)c1	0%
O=C(c1cccs1)N1CCN(S(=O)(=O)N2CCCCC2)CC1	4%
CCCN1C(=O)C2C(C(=O)Nc3cccc(OC)c3)C3C=CC2(O3)C1C(=O)NC1CCCCC1 (stereo unspecified)	-2%
O=C(Nc1ccc(Cl)cc1C(=O)O)c1ccc2c(c1)C(=O)N(Cc1ccco1)C2=O	?
CN(CCO)Cc1ncccc1O	?
O=S(=O)(NCCSc1ccc(Cl)cc1)c1ccc2c(c1)OCCO2	-20%
COc1nc(NC(C)(C)C)nc(Oc2ccc(=O)n(C)n2)n1	3%
Cc1ccc(NC(=O)CSc2nnc(-c3ccc(S(=O)(=O)N4CCCC4)cc3)o2)cc1C	4%
C[C@@H]1CCC[C@H](C)N1	3%[25.6 µM]
CCOCCCNC(=O)c1cc(C)nn1-c1ccccc1	0%
CC(C)(C)c1ccc(OCC(=O)O)c(Cl)c1	0%[11.4 µM]
COc1cc2ccccc2cc1C(=O)N1CCN(C)CC1	-23%
CCOC(=O)N1CCN(C(=O)c2ccc3nc4ccsc4c(=O)n3c2)CC1	25µM*

Other records follow.
SMILES	HSD17B inhib
COC(=O)c1ccccc1NC(=O)Cn1ccnc1	-4%
O=c1[nH]c(Nc2nc3ccccc3o2)nc2c1CCCC2	5%
O=C1CC(c2cccs2)c2cc3c(cc2N1)OCO3 (stereo unspecified)	-8%
CCOc1ccc2nc(N3CCCC(C(=O)N4CCN(CC)CC4)C3)sc2c1 (stereo unspecified)	4%
CCS(=O)(=O)Nc1cccc(C(=O)CC2(O)C(=O)Nc3ccccc32)c1 (stereo unspecified)	5%
Cc1ccc2nc(CC(=O)c3ccc4ccccc4c3)c(=O)[nH]c2c1	5%[11.4 µM]
CCOc1ccc(N2C(=O)c3cccnc3C2Nc2ccc(Cl)cc2)cc1 (stereo unspecified)	-6%
CCC[C@@H]1C[C@@]1(CCC)[C@@H](NP(=O)(c1ccccc1)c1ccccc1)c1ccc(C(=O)OC)cc1	15%
O=C(CN1C(=O)CSC1=O)Nc1ccc(F)c(F)c1F	4%
Cc1ccc2c(c1)C(O)(c1c(C)[nH]c3ccccc13)C(=O)N2 (stereo unspecified)	-13%
COc1ccc(C(=O)Nc2nncs2)cc1S(=O)(=O)N1CC(c2ccccc2)CC1=O (stereo unspecified)	-30%
CC(=O)Nc1c(C(=O)O)[nH]c2ccccc12	9%
Oc1c(C(Nc2nc3ccccc3s2)c2ccco2)ccc2cccnc12 (stereo unspecified)	-3%
COc1ccc2c(c1OC)C(=O)N(c1cccc(C)c1)C2=O	-8%
CC(=O)Oc1cccc(N2C(=O)C3C(C2=O)C2C=CC3C23CC3)c1 (stereo unspecified)	5%
O=C(NCCN1CCOCC1)c1ccc2c(c1)N(Cc1ccccc1F)C(=O)CS2	?
Cc1cc(C)c2nc(SCC(=O)N3CCCCC3)c(C#N)cc2c1	0%
CCOC(=O)c1ccc(NC(=O)CSc2nnc(COc3ccccc3OC)n2CC)cc1	4%
COc1ccccc1C1(O)CCN(CC(=O)Nc2c(C)nn(C)c2C)CC1	6%
O=C(Nc1nnc(-c2ccco2)s1)C1CCN(S(=O)(=O)c2ccc(Cl)cc2)CC1	?

In a second layout: results already given.
C=C(C)Cn1c(-c2ccccc2)nc2ccccc21
  HSD17B inhib: 32µM*
CN1CCN(CP(=O)(N2CCOCC2)N2CCOCC2)CC1
  HSD17B inhib: 1%

Carrying on:
SMILES	HSD17B inhib
Cn1cccc1C1NC(=O)c2c(sc3c2CCC(C(C)(C)C)C3)N1 (stereo unspecified)	-21%
CC1=C(C(=O)Nc2ccccc2C)C(c2ccc(C)o2)N2C(=O)CSC2=N1 (stereo unspecified)	-1%
N#CC(C(=O)NCCc1ccccc1)c1nc2ccccc2nc1N1CCCCC1 (stereo unspecified)	-12%
O=C(NCC1c2ccccc2CCN1C(=O)CN1CCOCC1)C1CCCCC1 (stereo unspecified)	8%
COC(=O)C1CCN(C(=O)NC(C)(C)C)CC1	8%
COc1ccc(O)c(CN2CCN(C/C=C/c3ccccc3)CC2)c1	-13%
CC1CC(C)CN(c2oc(-c3ccco3)nc2C#N)C1 (stereo unspecified)	32µM*
O=C(CSc1nnnn1C1CCCCC1)N1CCc2ccccc21	13%
O=C1C(C=NCc2ccco2)=C(O)c2ccccc21	-2%
COc1c(C(=O)Nc2c(C)n(C)n(-c3ccccc3)c2=O)ccc2ccccc12	7%
CCCOc1ccc(/C(O)=C2/C(=O)C(=O)N(CCCOC)C2c2ccncc2)cc1 (stereo unspecified)	-14%
Cc1cc(C)nc(N2C(=O)CC(Cc3ccccc3)C2=O)n1 (stereo unspecified)	12%
CN(C)CCn1nnnc1SCC1=C(C(=O)O)N2C(=O)[C@@H](NC(=O)Cc3csc(N)n3)[C@@H]2SC1	-5%[25.6 µM]
N#Cc1ccc(CN2CC3(CCN(C(=O)c4cc(C(F)(F)F)cc(C(F)(F)F)c4)CC3)C2)cc1	2%
COc1ccc(CCN2C(=O)CC(N3CCN(S(=O)(=O)c4ccccc4)CC3)C2=O)cc1 (stereo unspecified)	-8%
Cc1ccc(-c2cc(C(F)F)n3ncc(C(=O)NCc4ccco4)c3n2)cc1	-28%
CC(C)CNC(=O)C1CC(=O)OC12CCCCC2 (stereo unspecified)	12%
CC(C)n1c(NCc2ccc(N(C)C)cc2)nc2ccccc21	7%
COC(=O)c1cc(NS(=O)(=O)c2ccc(OC)c(OC)c2)ccc1Cl	1%
COc1cc2c(cc1OC)C(c1ccncc1)CC(=O)N2 (stereo unspecified)	12%
O=S1(=O)CCN2C=C(Br)C=C(Br)C2=N1	?
CC1(C)CC(=O)C=C(NCC(=O)O)C1	17%
CCCCN(C)C(=O)c1coc(=O)c2ccccc12	1%
C=CCn1c(SCCCCCC)nc(O)cc1=O	?
O=c1oc2cc(O)ccc2cc1-c1ccc(F)cc1	-22%
O=C(Nc1ccc(N2CCOCC2)c(Cl)c1)c1c(F)c(F)c(F)c(F)c1F	0%
NC(=O)CCc1c[nH]c2ccccc12	-3%
COc1ccc(NC(=O)CSc2nc3ccccc3c(=O)n2CCNC(C)=O)cc1	5%
CCOC(=O)C1CCN(C(=O)c2ccccc2N(C)S(C)(=O)=O)CC1	-12%
O=S(=O)(NCc1ccccc1)c1ccc(S(=O)(=O)N2CCCCC2)cc1	25%
COc1cc(C2c3c(-c4cc(Cl)c(C)cc4O)n[nH]c3C(=O)N2Cc2cccnc2)ccc1O (stereo unspecified)	-28%
O=C(COc1ccc2c3c(c(=O)oc2c1)CCC3)c1ccc2c(c1)OCO2	20µM*
C#CCOC(=O)c1ccccc1C(=O)OCC#C	-1%
COc1ccc(NS(=O)(=O)c2cc(C)ccc2NC(=O)c2cc(C)oc2C)cc1	-11%
C/C=C(\C)c1nnc(NC(=O)C(C)C)s1	-3%
O=C(O)CCC(=O)N1CCc2cc(S(=O)(=O)N3CCN(c4ccc(F)cc4)CC3)ccc21	6%
Cc1ccc(N(CC(=O)Nc2ccc(F)cc2)S(=O)(=O)N2CCCC2)cc1	-8%
COc1ccc(CCNC(=O)CN2CCOc3ccccc32)cc1OC	1%
Cn1c(=O)[nH]c(=O)c2c1nc(Br)n2CCC(=O)c1ccccc1	2%
S=C([S-])NCCNC(=S)[S-].[Zn+2]	5µM*
Cn1cccc1Cc1nnc(SCC(=O)N2CCCc3ccccc32)n1-c1ccc(F)cc1	-1%
CCC(C)C(NCc1cccc(C)c1)C(=O)O (stereo unspecified)	-5%
CC(C)CN(CC(C)C)S(=O)(=O)N1CCC(C(=O)NCc2cccs2)CC1	-6%
Cc1onc(-c2ccccc2)c1C(=O)Nc1nc(-c2cc(F)ccc2F)cs1	?
CC(C)OC(=O)CN1CCN(C2c3ccccc3-c3ccccc32)CC1	8%
CC1CCCN(c2nc3ccccc3nc2C(C#N)S(=O)(=O)c2ccccc2)C1 (stereo unspecified)	-25%
Cc1onc(-c2ccccc2Cl)c1C(=O)Nc1ccc(-n2nncc2C(C)(C)C)cc1	-3%
O=C(Nc1ccc(-c2noc(CCc3ccccc3)n2)cc1)c1ccco1	?
